MLL AF4-AF9 inh = blocks AF4 peptide binding to human AF9; P42568; AlphaScreen, biotin-AF4 peptide binding to FLAG-AF9; inhibition, % at 10 µM; hit rate 0.47% among 350,000;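 active = every replicate reaching a set inhibition limit, whatever the replicate mean, cut at about 25% in these data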;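 note: 0% = plate neutral control median and 100% = total signal loss; the record names both 10 and 1 µM as test concentration; the first replicate is given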
Target sequence (P42568 whole entry, looked up): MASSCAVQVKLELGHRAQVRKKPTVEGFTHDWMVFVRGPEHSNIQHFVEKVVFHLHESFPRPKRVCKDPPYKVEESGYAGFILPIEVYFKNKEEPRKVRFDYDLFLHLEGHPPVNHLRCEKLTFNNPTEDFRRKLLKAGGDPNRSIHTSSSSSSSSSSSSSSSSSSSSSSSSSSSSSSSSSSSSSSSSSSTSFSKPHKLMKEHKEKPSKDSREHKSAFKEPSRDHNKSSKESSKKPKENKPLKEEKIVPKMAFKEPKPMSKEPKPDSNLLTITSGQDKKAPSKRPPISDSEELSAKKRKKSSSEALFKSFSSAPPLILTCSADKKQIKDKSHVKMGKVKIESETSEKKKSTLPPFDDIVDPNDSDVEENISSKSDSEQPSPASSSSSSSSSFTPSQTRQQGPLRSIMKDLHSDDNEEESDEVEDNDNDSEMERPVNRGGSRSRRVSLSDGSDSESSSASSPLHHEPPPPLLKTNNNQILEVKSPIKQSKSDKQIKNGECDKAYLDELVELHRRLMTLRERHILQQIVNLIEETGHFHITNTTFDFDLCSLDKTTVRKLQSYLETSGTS
Ecoli rRNA inh = inhibitors of bacterial rRNA selective over humanized ribosomes; E. coli WT GFP vs humanized-ribosome RFP mutants, fluorescence, 24 h; active compounds read low; DMSO median 0, no signal -100; GFP signal change (wild-type ribosome), % (concentration not given with the values); hit rate 1.6% among 350,000;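 active = significant combined selectivity score with lowered wild-type GFP, culture density cut under 30%, mutant RFP and density less affected; inactive = any of these conditions unmet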; note: one replicate is shown; some compounds called inactive have numbers as strong as hits
Ecoli rRNA inh OD600 = recorded beside Ecoli rRNA inh, whose call it bears; OD600 change, %; measured here: OD600 growth;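 optical density of the mix in the first replicate; 0 = DMSO median and -100 = no signal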
Ecoli rRNA inh RFP = second read-out of Ecoli rRNA inh, no call of its own (marks repeat the call); RFP signal change, %; measured here: RFP humanized mutant strains;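 first replicate; 0 = DMSO median and -100 = no signal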
* marks the source's active call; other numbers are inactive results; i = inactive; x = no result given. A portion of the library (hit frequency here may not be typical).

SMILES	MLL AF4-AF9 inh	Ecoli rRNA inh	Ecoli rRNA inh OD600	Ecoli rRNA inh RFP
O=C(NC1CCCC1)N1CC(=O)N2[C@H](CO)[C@@H](c3ccc(-c4cccnc4)cc3)[C@H]2C1	-1.4	0	12	2.6
C[C@H](O)C#Cc1ccc2c(c1)O[C@H](CN(C)Cc1cncnc1)[C@@H](C)CN([C@H](C)CO)S2(=O)=O	1.2	0	3	-0.6
O=C(C[C@@H]1CC[C@@H]2[C@H](COC[C@H](O)CN2Cc2ccc(Oc3ccccc3)cc2)O1)N1CCN(c2ccccc2)CC1	12	i	x	x
Cc1cn(CC(=O)N(C)Cc2ccco2)c(=O)[nH]c1=O	-2.2	0	2	10
CC(C)C#Cc1ccc([C@H]2[C@@H](C#N)N(C(=O)c3cccc(F)c3)[C@@H]2CO)cc1	1.3	-52	-77	-11
FC(F)(F)c1ccccc1NC(=S)N/N=C1\CC2CC=CC12 (configuration not stated)	-4.6	3	8	2.4
COc1ccc(CNC(=O)N(C)C[C@H]2OCc3ccccc3-c3ccccc3C(=O)N([C@H](C)CO)C[C@@H]2C)cc1	-2.6	-3	-1	3.5
O=C1CN(S(=O)(=O)Cc2ccccc2)C[C@@H]2[C@H](c3ccc(C#CCC4CCCC4)cc3)[C@H](CO)N12	0.2	5	4	-3.9
C[C@@H]1CN([C@@H](C)CO)C(=O)c2cccc(NC(=O)Nc3ccc4c(c3)OCO4)c2O[C@@H]1CN(C)Cc1ccc(Oc2ccccc2)cc1	14	-2	-20	-1.1
CCS(=O)(=O)Nc1ccc2c(c1)C(=O)N(C)C[C@@H](OC)[C@H](C)CN(C(=O)NC(C)C)[C@@H](C)CO2	-2.1	-4	0	0.3
C[C@@H]1CN([C@@H](C)CO)C(=O)Cc2cc(NC(=O)Nc3ccccc3)ccc2O[C@H]1CN(C)Cc1ccc(C(=O)O)cc1	-0.6	-3	-3	0.3
C[C@@H]1CN([C@@H](C)CO)S(=O)(=O)c2ccc(-c3cccc(F)c3)cc2O[C@H]1CN(C)S(C)(=O)=O	-0.4	-13	-22	1.7
COc1ccc(-c2cnc3c(c2)C(=O)N([C@@H](C)CO)C[C@H](C)[C@H](CN(C)C(=O)CN(C)C)O3)cc1	-3.1	3	-7	-2.0
CN(C)C(=O)C[C@H]1C=C[C@H](NC(=O)c2ccc(F)cc2)[C@@H](CO)O1	-1.3	2	2	0.5
CS(=O)(=O)N1Cc2cc(C(=O)O)nc(-c3cccc(-c4ccccc4F)c3)c2[C@H]1CCO	1.5	5	11	0.7
COc1ccc2c3c(n(C)c2c1)[C@@H](CO)N(C(=O)NC(C)C)CC31CN(CC2CCCC2)C1	20	-4	1	-1.0
N#Cc1ccc(C(=O)N2CCCC(c3cc(C(=O)NCc4cccnc4)no3)C2)cc1 (configuration not stated)	-0.8	10	10	1.0
COc1ccc2c3c([nH]c2c1)[C@@H](CO)N(C(=O)Nc1ccc(F)cc1)CC31CCN(S(=O)(=O)c2cccc(C)c2)CC1	1.4	-2	6	-0.6
C[C@@H]1CN([C@H](C)CO)S(=O)(=O)c2ccc(C#CC3CC3)cc2O[C@@H]1CN(C)C(=O)Cc1ccncc1	3.2	9	13	2.2
O=C(c1cccc(F)c1)N1CCCCN2[C@@H](CO)[C@@H](c3ccc(-c4cncnc4)cc3)[C@@H]2C1	-4.6	2	7	1.5

Already shown: an excerpt of the list.
SMILES	MLL AF4-AF9 inh	Ecoli rRNA inh	Ecoli rRNA inh OD600	Ecoli rRNA inh RFP
C[C@@H]1CN([C@@H](C)CO)C(=O)c2cccc(NC(=O)Nc3ccc4c(c3)OCO4)c2O[C@@H]1CN(C)Cc1ccc(Oc2ccccc2)cc1	14	-2	-20	-1.1
CCS(=O)(=O)Nc1ccc2c(c1)C(=O)N(C)C[C@@H](OC)[C@H](C)CN(C(=O)NC(C)C)[C@@H](C)CO2	-2.1	-4	0	0.3
C[C@@H]1CN([C@@H](C)CO)C(=O)Cc2cc(NC(=O)Nc3ccccc3)ccc2O[C@H]1CN(C)Cc1ccc(C(=O)O)cc1	-0.6	-3	-3	0.3
C[C@@H]1CN([C@@H](C)CO)S(=O)(=O)c2ccc(-c3cccc(F)c3)cc2O[C@H]1CN(C)S(C)(=O)=O	-0.4	-13	-22	1.7
COc1ccc(-c2cnc3c(c2)C(=O)N([C@@H](C)CO)C[C@H](C)[C@H](CN(C)C(=O)CN(C)C)O3)cc1	-3.1	3	-7	-2.0
CN(C)C(=O)C[C@H]1C=C[C@H](NC(=O)c2ccc(F)cc2)[C@@H](CO)O1	-1.3	2	2	0.5
CS(=O)(=O)N1Cc2cc(C(=O)O)nc(-c3cccc(-c4ccccc4F)c3)c2[C@H]1CCO	1.5	5	11	0.7
COc1ccc2c3c(n(C)c2c1)[C@@H](CO)N(C(=O)NC(C)C)CC31CN(CC2CCCC2)C1	20	-4	1	-1.0
N#Cc1ccc(C(=O)N2CCCC(c3cc(C(=O)NCc4cccnc4)no3)C2)cc1 (configuration not stated)	-0.8	10	10	1.0
COc1ccc2c3c([nH]c2c1)[C@@H](CO)N(C(=O)Nc1ccc(F)cc1)CC31CCN(S(=O)(=O)c2cccc(C)c2)CC1	1.4	-2	6	-0.6
C[C@@H]1CN([C@H](C)CO)S(=O)(=O)c2ccc(C#CC3CC3)cc2O[C@@H]1CN(C)C(=O)Cc1ccncc1	3.2	9	13	2.2
O=C(c1cccc(F)c1)N1CCCCN2[C@@H](CO)[C@@H](c3ccc(-c4cncnc4)cc3)[C@@H]2C1	-4.6	2	7	1.5

(listing goes on)
SMILES	MLL AF4-AF9 inh	Ecoli rRNA inh	Ecoli rRNA inh OD600	Ecoli rRNA inh RFP
CO[C@@H]1CN(C)C(=O)c2cc(NS(=O)(=O)c3ccccc3C)ccc2OC[C@@H](C)N(C)C[C@@H]1C	-2.3	1	0	0.1
O=C(CSc1ccc([N+](=O)[O-])cc1)c1ccccc1	-4.1	-2	11	0.1
N#C[C@@H]1[C@H](c2ccc(C3=CCCCC3)cc2)[C@H](CO)N1S(=O)(=O)c1ccccc1	1.5	-3	-43	4.1
CN1CCN(c2ccc(CNC(=O)c3ccc(-c4ccc(F)c(F)c4)c4ccoc34)cc2)CC1	9.4	1	-3	7.4
C[C@@H]1CN([C@H](C)CO)C(=O)c2c(c3ccccc3n2C)-c2ccccc2CO[C@H]1CN(C)S(=O)(=O)c1ccc(Cl)cc1	0.6	0	7	-0.1
O=C(C[C@H]1CC[C@@H]2[C@H](COC[C@@H](O)CN2Cc2ccccc2F)O1)NCc1ccccc1F	0.4	2	10	-3.7
CCCCC1CC2=C(C(=O)OC(C)(C)O2)C(c2ccc3ccccc3c2)O1 (configuration not stated)	-4.6	1	-4	9.0
CS(=O)(=O)Nc1ccc2c(c1)[C@H]1C[C@@H](CC(=O)NCCc3ccccc3)O[C@H](CO)[C@H]1O2	14	-1	-2	0.6
COC(=O)C(C(=O)OC)c1cc2c(cc1CNS(=O)(=O)c1ccc(C)cc1)OCO2	1.9	-6	-10	-1.9
CCC(=O)NC[C@H]1[C@H](c2ccccc2)[C@@H](CO)N1C(=O)C1CC1	-4.6	1	3	-4.7
CC(C)c1cn(CC[C@H]2CC[C@H](NC(=O)C3CCCCC3)[C@H](CO)O2)nn1	-2.4	4	9	2.3
COCCNC(=O)C1(C)CCCN(C(=O)c2ccc(C)c(F)c2)C1 (configuration not stated)	-5.9	0	9	-1.8
CO[C@@H]1CN(C)C(=O)c2cc(NC(=O)C3CC3)ccc2OC[C@@H](C)N(C(=O)c2ccccc2F)C[C@@H]1C	-0.9	0	-3	-1.4
C[C@H](CO)N1C[C@H](C)[C@H](CN(C)Cc2ccccc2)Oc2ccc(NC(=O)C3CC3)cc2C1=O	-0.4	2	-6	-0.9
O=C(C[C@H]1CC[C@@H]2[C@H](COC[C@@H](O)CN2S(=O)(=O)c2ccc(F)cc2)O1)NCC1CCCCC1	34*	-3	5	-0.5
Cc1cc(C)n2c(NC3CCCC3)c(-c3cc4ccccc4o3)nc2n1	3.5	6	15	-2.7
C[C@@H]1CN([C@@H](C)CO)C(=O)c2cc(NS(=O)(=O)c3ccc(F)cc3)ccc2O[C@@H](C)CCCCO[C@H]1CN(C)C(=O)c1ccccc1	-0.9	1	-2	0.5
C[C@@H]1CCCCO[C@@H](CN(C)CC2CCCCC2)[C@@H](C)CN([C@H](C)CO)C(=O)c2cc(N(C)C)ccc2O1	14	3	-1	-0.5
COc1ccc(S(=O)(=O)N(C)C[C@@H]2Oc3ccc(NC(=O)CCCN(C)C)cc3C(=O)N([C@@H](C)CO)C[C@H]2C)cc1	-6.4	2	10	-1.9
COc1ccc(S(=O)(=O)Nc2ccc3c(c2)C(=O)N([C@H](C)CO)C[C@H](C)[C@H](CN(C)Cc2ccncc2)OCCCC[C@@H](C)O3)cc1	-1.7	-4	-6	-1.7
C[C@@H]1CN([C@H](C)CO)C(=O)c2cc(C3=CCCC3)cnc2O[C@@H]1CN(C)S(C)(=O)=O	-3.1	4	0	-3.5
COc1ccc(-c2cnc3c(c2)C(=O)N([C@H](C)CO)C[C@H](C)[C@H](CN(C)S(=O)(=O)c2ccc(F)cc2)O3)cc1	-2.9	-1	-3	0.5
COc1ccc(C#Cc2ccc([C@H]3[C@@H](CO)N4CCCCN(Cc5ccccc5F)C[C@H]34)cc2)cc1	29*	-54	-73	-9.2
Cc1ccc(S(=O)(=O)N(C)C[C@H]2Oc3ccc(NC(=O)CCN4CCOCC4)cc3C(=O)N([C@@H](C)CO)C[C@H]2C)cc1	1.5	4	13	1.8
O=C(c1cnccn1)N1CC(=O)N2[C@H](C1)[C@H](c1ccc(C#CCc3ccccc3)cc1)[C@@H]2CO	17	0	0	1.2
CNC[C@@H]1OCCCC[C@@H](C)Oc2ccc(NC(=O)c3ccccc3)cc2C(=O)N([C@@H](C)CO)C[C@@H]1C	-6.5	8	7	-0.5
C[C@@H]1CN([C@H](C)CO)C(=O)Cc2cc(NC(=O)CCN3CCOCC3)ccc2O[C@@H]1CN(C)S(=O)(=O)c1ccc(Cl)cc1	1.2	-1	8	-2.2
CC(C)CC#Cc1ccc2c(c1)O[C@@H](CN(C)C(=O)Cc1ccccn1)[C@H](C)CN([C@H](C)CO)S2(=O)=O	6.6	-3	-13	16
C[C@@H]1CCCCO[C@@H](CN(C)S(=O)(=O)c2ccccc2)[C@@H](C)CN([C@H](C)CO)C(=O)c2cc(NC(=O)c3ccncc3)ccc2O1	0.9	1	4	-1.5
CC(C)NC(=O)N(C)C[C@@H]1OCCCC[C@H](C)Oc2ccc(NC(=O)Nc3ccc4c(c3)OCO4)cc2C(=O)N([C@H](C)CO)C[C@@H]1C	2.8	2	4	2.7
Cc1noc(C)c1S(=O)(=O)Nc1ccc2c(c1)C(=O)N([C@@H](C)CO)C[C@H](C)[C@H](CN(C)Cc1ccc(Oc3ccccc3)cc1)O2	5.1	1	-19	7.3
COCC(=O)N[C@@H]1C=C[C@H](CC(=O)NCc2ccccc2OC)O[C@@H]1CO	-1.5	1	6	-0.4
O=C(Nc1ccccc1F)N[C@H]1C=C[C@@H](CC(=O)N2CCCCC2)O[C@@H]1CO	-0.5	0	3	0.2
COc1cccc(CN(C)C[C@H]2OCc3ccccc3-c3c(n(C)c4ccccc34)C(=O)N([C@@H](C)CO)C[C@@H]2C)c1	14	-21	-41	19
O=C(C[C@H]1C[C@@H]2c3cc(NC(=O)Nc4ccc(C(F)(F)F)cc4)ccc3O[C@@H]2[C@@H](CO)O1)NC1CCCCC1	1.9	-17	-59	35
CCCN(C)C[C@@H]1OCCCC[C@H](C)Oc2ccc(NS(=O)(=O)c3ccc(C)cc3)cc2C(=O)N([C@@H](C)CO)C[C@H]1C	11	2	-3	1.3
COc1ccccc1C#Cc1ccc2c(c1)O[C@@H](CN(C)Cc1ccccc1)[C@@H](C)CN([C@@H](C)CO)S2(=O)=O	0.1	0	9	1.9
C[C@H]1CN([C@@H](C)CO)C(=O)c2cccc(NS(=O)(=O)c3ccc(Cl)cc3)c2O[C@@H]1CN(C)Cc1ccc(Oc2ccccc2)cc1	2.6	2	5	-1.5
C[C@@H]1CCCCO[C@@H](CN(C)CC2CCCCC2)[C@H](C)CN([C@@H](C)CO)C(=O)c2cc(NS(=O)(=O)c3cn(C)cn3)ccc2O1	-2.0	1	-2	0.0
Cc1ccc(S(=O)(=O)N2C[C@H]3[C@H]4C(=O)N(C)C(=O)[C@H]4CC(=O)[C@H]3[C@@H]2c2ccccc2Cl)cc1	-0.9	-3	-5	-3.1
CC(C)(O)C#Cc1ccc([C@H]2[C@H](CO)N3CCCCN(C(=O)c4ccc(F)cc4)C[C@@H]23)cc1	1.4	3	13	2.6
CNC[C@@H]1Oc2ncc(-c3cccc(C(=O)N(C)C)c3)cc2C(=O)N([C@H](C)CO)C[C@@H]1C	-3.4	10	8	-3.6
CC(C)NC(=O)Nc1ccc2c(c1)C(=O)N([C@H](C)CO)C[C@H](C)[C@H](CN(C)Cc1ccc(C(=O)Nc3ccccc3N)cc1)OCCCC[C@@H](C)O2	-1.3	2	3	-1.7
CN(C)CCCNC(=O)C[C@H]1CC[C@H]2[C@H](COc3ccc(NC(=O)NC4CCCC4)cc3C(=O)N2C)O1	-1.6	4	-3	0.8
CC(C)NC(=O)Nc1ccc2c(c1)C(=O)N([C@@H](C)CO)C[C@@H](C)[C@@H](CN(C)Cc1ccccc1)OCCCC[C@@H](C)O2	-6.9	1	-1	-1.1
CCNC(=O)[C@H]1[C@H](CO)[C@H]2Cn3c(ccc(C4=CCCC4)c3=O)[C@@H]1N2Cc1ccccc1	-0.7	0	-4	-1.5
